GALK inhibitor: galactokinase (human) inhibition; P51570; Purified GALK, Kinase-Glo residual ATP luminescence; Potency, µM (doses to about 57.5 µM), for the others: at the top dose activity change, negative = inhibition, hits mostly inhibitors; actives 0.007% (n = 270,000); AID 1868; further: on the % scale 0 is the no-effect control and ±100 the full control effect
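The enzyme phosphorylates galactose (100 uM) using ATP (35 uM); inhibition is detected as higher residual ATP, quantified by bioluminescence after 1 h reaction at room temperature, pH 8.0.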
TSG101-PTAP inh: blocks PTAP/TSG101 interaction to inhibit HIV-1 budding | Q99816 | Fluorescence polarization, FITC-PTAP peptide / Tsg101 binding | Potency, µM (titrated, usually from 115 µM), for the others: at the top dose activity change, negative = inhibition, hits mostly inhibitors | 340,000 tested, under 10 active | AID 493005; active means well fitted inhibition curve with a large enough effect in the main read-out, with a control signal flat, not every such curve was filed as active; inconclusive means small, poorly fitted or top-dose-only effect, or effect the other way, or a change in a side signal; inactive means no such curve, though single readings can be large or run the other way; further: % of control where 0% means no effect
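FP read-out: FITC-PTAP peptide, 50 nM final, binding Tsg101 binding domain, 10 uM final; 20 min, r.t.; 10 mM HEPES pH 7.5, 0.15 M NaCl, 0.01% Tween 20, 3 mM EDTA, 0.1 mM TCEP.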
a7 integrin act: activates integrin-mediated alleviation for muscular dystrophy | alpha7betagal myoblasts, beta-gal FDG fluorescence, 48 h | Potency, µM (titrated, usually from 38.3 µM), for inactives: at the highest dose activation, usual class: activators | actives 0.064% (n = 350,000) | AID 624291;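 further: 100% = response of the positive control SU9516; nearly all actives have a fitted effect of over 60% in size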
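alpha7betagal+/- myoblasts (passage 13, 250/well) treated 48 h at 37C with compounds at 1:260 dilution of DMSO stock. Lysed, then beta-galactosidase activity read as FDG fluorescence (ex 480/em 540) after 30 min, with pre-read for autofluorescence.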
Tb PFK block: T. brucei PFK enzyme inhibition. O15648. T. brucei PFK, ADP-Glo luminescence. Potency, µM (highest dose often 57.5 µM), inactives show top-dose activity, negative = inhibition, actives largely listed as inhibitors. actives 0.17% (n = 330,000);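 further: 0% = uninhibited 1x PFK enzyme wells and -100% = no-enzyme wells; nearly all actives have a fitted effect of over 60% in size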
Target sequence (O15648 whole entry, looked up): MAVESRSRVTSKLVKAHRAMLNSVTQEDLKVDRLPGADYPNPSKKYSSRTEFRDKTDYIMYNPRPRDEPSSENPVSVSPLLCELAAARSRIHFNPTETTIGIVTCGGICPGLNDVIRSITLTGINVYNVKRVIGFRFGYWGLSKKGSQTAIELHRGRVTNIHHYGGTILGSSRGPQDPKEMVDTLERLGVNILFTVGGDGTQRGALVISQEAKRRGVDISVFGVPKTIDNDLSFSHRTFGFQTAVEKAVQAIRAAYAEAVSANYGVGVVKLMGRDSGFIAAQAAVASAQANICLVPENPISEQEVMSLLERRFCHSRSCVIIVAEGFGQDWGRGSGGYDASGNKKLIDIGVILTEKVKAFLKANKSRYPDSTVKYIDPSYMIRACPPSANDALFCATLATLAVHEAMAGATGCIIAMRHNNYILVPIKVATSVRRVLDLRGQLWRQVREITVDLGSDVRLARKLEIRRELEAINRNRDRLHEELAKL
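1.25 nM PFK with 0.5 mM F6P and 0.1 mM ATP in 0.1 M TEA pH 8.0, 5 mM MgCl2, incubated 45 min at room temperature; ADP measured by ADP-Glo luminescence; compounds titrated up to 57 uM.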
BCR signal inh: blocks chronic active B-cell receptor signaling. Potency, µM (doses to about 46.1 µM), for the others: top-dose ratio change, negative = lower green/red ratio, most hits filed as inhibitors. AID 493014. ABC-DLBCL IkBa-CBG/CBR reporter, luminescence ratio, 4 h. actives 0.05% (n = 340,000); active means well fitted inhibition curve with a large enough effect in the signal ratio, with a control signal flat, not every such curve was filed as active; inconclusive means small, poorly fitted or top-dose-only effect, or effect the other way, or a change in a side signal; the % refers to the signal ratio;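 further: plate controls were basal doxycycline-induced cells for no effect and cells given 10 µM MG132 for full effect; MG132 reads +100%, hits lower the ratio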
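Cell line TMD8 (human ABC DLBCL), stably expressing tet-inducible CBG68-IkBa fusion and CBR; IMDM/0.5% FBS; cpd up to 46 uM; dox induction, 4 h, 37C/5% CO2; dual luminescence; green/red ratio; MG132 control.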
S-ASM inh: inhibitors of human secretory acid sphingomyelinase. actives 0.006% (n = 340,000). Potency, µM (doses to about 57.5 µM), inactives show at the highest dose activity change, negative = inhibition, actives largely listed as inhibitors. P17405. placental ASM, HMU-PC fluorogenic substrate, 60 min
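qHTS format. ASM enzyme prepared from human placenta hydrolyses the fluorogenic substrate HMU-PC0 (9 uM final) over 60 min at 37 °C after a 10 min compound preincubation.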
* = called active by the depositor; ? = inconclusive; . = not tested or not shown; & = joins results of further samples. Unless noted, the call rests on the fitted dose curve; in most records, active means well fitted curve in the direction sought with a large enough effect; inconclusive means small, poorly fitted or top-dose-only effect, or another doubt; inactive means no such curve, though single readings can be large; an effect the other way counts as inactive or inconclusive. Potency means the concentration at half of the fitted maximal effect. The list is partial; rates above refer to the full screens.

The opening two compounds, to show the layout:
| SMILES | GALK inhibitor | TSG101-PTAP inh | a7 integrin act | Tb PFK block | BCR signal inh | S-ASM inh |
| --- | --- | --- | --- | --- | --- | --- |
| CN1[C@@H]2CC[C@H]1CC(OC(=O)C(CO)c1ccccc1)C2 (stereo partly specified) | -1% | 0% | . | 0% | 0% | -2% |
| CCN(CC)C(=O)C(=O)Nc1ccc(OCc2ccccc2)cc1 | 3% | -1% | -3% | -6% | 0% | -3% |

The list itself, from the start:
| SMILES | GALK inhibitor | TSG101-PTAP inh | a7 integrin act | Tb PFK block | BCR signal inh | S-ASM inh |
| --- | --- | --- | --- | --- | --- | --- |
| CN1[C@@H]2CC[C@H]1CC(OC(=O)C(CO)c1ccccc1)C2 (stereo partly specified) | -1% | 0% | . | 0% | 0% | -2% |
| CCN(CC)C(=O)C(=O)Nc1ccc(OCc2ccccc2)cc1 | 3% | -1% | -3% | -6% | 0% | -3% |
| Cc1ccccc1Nc1nc(N)nc(C)c1Br | . | 0% | 11% | . | . | 1% |
| Cc1ccc(O)c(NC(=S)NC(=O)c2ccccc2Cl)c1 | 0% | -4% | 2% | 3% | ? | -5% |
| CS(=O)(=O)c1ccc([C@@H](O)[C@@H](CF)NC(=O)C(Cl)Cl)cc1 | . | 0% | . | 2% | 0% | 0% |
| CC(C)(C)NC(=O)[C@@H]1C[C@@H]2CCCC[C@@H]2CN1C[C@@H](O)[C@H](Cc1ccccc1)NC(=O)[C@H](CC(N)=O)NC(=O)c1ccc2ccccc2n1 | . | 0%&0% | . | 0% | ? | -7%&5% |
| COc1c2occc2cc2ccc(=O)oc12 | 1% | -6% | 0% | -4% | ? | -1% |
| CN1[C@@H]2CC[C@H]1CC(OC(=O)[C@H](CO)c1ccccc1)C2 (stereo partly specified) | . | -4% | . | 1% | -4% | 8% |
| COc1ccc(C[C@H](C)NC[C@@H](O)c2ccc(O)c(NC=O)c2)cc1 | . | 2% | . | . | . | 2% |

4 of these compounds, reformatted:
Values run as follows: GALK inhibitor, TSG101-PTAP inh, a7 integrin act, Tb PFK block, BCR signal inh, S-ASM inh
> CS(=O)(=O)c1ccc([C@@H](O)[C@@H](CF)NC(=O)C(Cl)Cl)cc1
    ., 0%, ., 2%, 0%, 0%
> CC(C)(C)NC(=O)[C@@H]1C[C@@H]2CCCC[C@@H]2CN1C[C@@H](O)[C@H](Cc1ccccc1)NC(=O)[C@H](CC(N)=O)NC(=O)c1ccc2ccccc2n1
    ., 0%&0%, ., 0%, ?, -7%&5%
> COc1c2occc2cc2ccc(=O)oc12
    1%, -6%, 0%, -4%, ?, -1%
> CN1[C@@H]2CC[C@H]1CC(OC(=O)[C@H](CO)c1ccccc1)C2 (stereo partly specified)
    ., -4%, ., 1%, -4%, 8%

Quoted at random: 3 entries already listed
| SMILES | GALK inhibitor | TSG101-PTAP inh | a7 integrin act | Tb PFK block | BCR signal inh | S-ASM inh |
| --- | --- | --- | --- | --- | --- | --- |
| CS(=O)(=O)c1ccc([C@@H](O)[C@@H](CF)NC(=O)C(Cl)Cl)cc1 | . | 0% | . | 2% | 0% | 0% |
| Cc1ccccc1Nc1nc(N)nc(C)c1Br | . | 0% | 11% | . | . | 1% |
| CN1[C@@H]2CC[C@H]1CC(OC(=O)[C@H](CO)c1ccccc1)C2 (stereo partly specified) | . | -4% | . | 1% | -4% | 8% |

Bioassay records as filed in PubChem BioAssay.
